High-throughput results as filed in PubChem.
HNF4A DNA FP – change in binding of human HNF4 alpha to DNA; HNF4a-FITC DNA binding, fluorescence polarization, 1 h; activity change, % at 10 µM; 360,000 tested, 0.3% active; in the data active = activity change above about 30%, passing the limit was not always enough;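 also: controls were the assay level and a saturating level of protein; the project sought stronger binding though the title names inhibitors; some compounds called inactive have numbers as strong as hits; positive values seem to mean higher polarization but the record does not say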
Beta2AR agonist – human beta-2 adrenergic receptor agonism by FAP; P07550; Am2.2-beta2AR cells, FAP receptor internalization, flow cytometry; reference of the scale not given here; response, % (concentration not given with the values); 340,000 tested, 0.43% active;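 active = response above a set limit, near 3 SD of response in nonfluorescent compounds, cut at about 42% in these data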;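 also: stock transfer was 100 nL into about 11 µL; a reference agonist was the positive control; negative values mostly stem from fluorescent compounds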
Ecoli rRNA inh – inhibitors of bacterial rRNA selective over humanized ribosomes. E. coli WT GFP vs humanized-ribosome RFP mutants, fluorescence, 24 h; stronger effect = lower value; DMSO median 0, no signal -100. GFP signal change (wild-type ribosome), % (concentration not given with the values). 350,000 tested, 1.6% active. AID 720706;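 active = significant combined selectivity score with lowered wild-type GFP, culture density cut under 30%, mutant RFP and density less affected; inactive = any of these conditions unmet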; also: one replicate is shown; some compounds called inactive have numbers as strong as hits
FGF22 binding – binders of recombinant human FGF22 by thermal shift. SYPRO orange fluorescence; percent of sucrose octasulfate shift, DMSO zero. calls only at 9.99 µM. 340,000 tested, 1.5% active;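 active = melting point raised past a set limit in the mean and every replicate; three in four hits are not shown here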
Target sequence (Q9HCT0 whole entry, looked up): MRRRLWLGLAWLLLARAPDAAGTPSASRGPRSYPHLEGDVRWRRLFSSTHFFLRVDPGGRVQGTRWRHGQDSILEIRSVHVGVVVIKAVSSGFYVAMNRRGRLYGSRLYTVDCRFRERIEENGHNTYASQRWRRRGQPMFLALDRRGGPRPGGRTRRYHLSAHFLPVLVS
ALR H2O2 inh – human ALR oxidase inhibition via reduced H2O2; 290,000 tested, 3.8% active; P55789; inhibition, % (no concentration beside the values); purified ALR, DTT oxidation, H2O2 HRP-luminol luminescence;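 active = mean and each replicate at 75% or more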;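 also: stock transfer was 7.5 nL into about 7.5 µL; 0% = neutral wells and 100% = wells with inactivated enzyme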
Target sequence (P55789 whole entry, looked up): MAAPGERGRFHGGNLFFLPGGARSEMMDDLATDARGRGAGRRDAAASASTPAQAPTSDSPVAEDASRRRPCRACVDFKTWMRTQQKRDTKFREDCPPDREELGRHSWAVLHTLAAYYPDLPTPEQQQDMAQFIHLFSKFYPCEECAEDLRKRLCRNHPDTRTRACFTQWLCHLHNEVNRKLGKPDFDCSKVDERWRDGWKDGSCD
UCH37 DUB inh – inhibitors of human deubiquitinating enzyme UCH37 | Q9Y5K5 | purified proteasome/UCH37, Ub-AMC cleavage fluorescence | inhibition, % (test concentration not listed) | 330,000 tested, 0.33% active | AID 588478;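 active = mean of two replicates above 20%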;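 also: 0% = compound-free wells with enzyme and 100% = wells lacking proteasome; stock transfer was 100 nL into about 20 µL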
Target sequence (Q9Y5K5 whole entry, looked up): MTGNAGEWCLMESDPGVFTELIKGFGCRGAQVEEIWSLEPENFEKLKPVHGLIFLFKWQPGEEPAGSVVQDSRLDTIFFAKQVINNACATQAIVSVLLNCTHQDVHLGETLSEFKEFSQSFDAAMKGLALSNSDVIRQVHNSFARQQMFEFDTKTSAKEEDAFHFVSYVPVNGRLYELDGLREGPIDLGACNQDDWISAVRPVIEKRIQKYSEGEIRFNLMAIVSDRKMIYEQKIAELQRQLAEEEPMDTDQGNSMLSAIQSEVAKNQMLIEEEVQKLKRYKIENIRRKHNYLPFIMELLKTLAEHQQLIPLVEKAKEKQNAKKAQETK
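Material: human UCH37 enzyme supplied as purified proteasome complex / Amount: 0.15 nM proteasome as dispensed / Buffer or medium: pH 7.4 Tris-HCl (50 mM) with ovalbumin, ATP-MgCl2, DTT / Times: preincubation 30 min, reaction 25 min, room temperature / Technique: AMC fluorescence from Ub-AMC cleavage, excitation 355 nm, emission 460 nm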
E coli growth – inhibitors of Escherichia coli growth; OD600, 23 h; stronger effect = lower value; OD600 absorbance (test concentration not listed); 330,000 tested, 0.21% active; AID 1053175;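 active = OD600 absorbance below the run mean of sample wells minus 3.6 SD, in any replicate, cut at about 0.56 in these data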;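 also: stock transfer was 300 nL into about 60 µL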
Ecoli rRNA inh OD600 – recorded beside Ecoli rRNA inh, whose call it bears; OD600 change, %; measured here: OD600 growth;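 optical density of the mix in the first replicate; 0 = DMSO median and -100 = no signal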
Ecoli rRNA inh RFP – also measured in Ecoli rRNA inh; calls as there; RFP signal change, %; measured here: RFP humanized mutant strains;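 first replicate; 0 = DMSO median and -100 = no signal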
Numbers without * were called inactive; i = inactive; . = no result given. Not all compounds are listed; count on the stated rates, not on these rows.

The opening 4 entries, ahead of the listing:
cpd	Compound	HNF4A DNA FP	Beta2AR agonist	Ecoli rRNA inh	Ecoli rRNA inh OD600	Ecoli rRNA inh RFP	FGF22 binding	ALR H2O2 inh	UCH37 DUB inh	E coli growth
1	CCC(C)(C)NC(=O)C(c1ccncc1)N(Cc1ccc(C)cc1)C(=O)c1csnn1 (stereo not drawn)	-3.8	-1	.	.	.	.	-5	0.7	0.68
2	Cn1nc(C(=O)NCC2COc3ccccc3O2)c2ccccc2c1=O (stereo not drawn)	3.2	-5	.	.	.	i	-4	1.6	0.67
3	CCOc1cc(CNC2CCCC2)c(Cl)cc1OCC(=O)Nc1ccccc1	1.1	8	9	0	-1.7	i	3	3.7	0.63
4	CC1(C)C(=O)OC(c2cc(Br)ccc2O)C(C)(C)C1=O (stereo not drawn)	0.8	0	.	.	.	.	98*	7.3	0.64

Results, repeating the preview:
cpd	Compound	HNF4A DNA FP	Beta2AR agonist	Ecoli rRNA inh	Ecoli rRNA inh OD600	Ecoli rRNA inh RFP	FGF22 binding	ALR H2O2 inh	UCH37 DUB inh	E coli growth
1	CCC(C)(C)NC(=O)C(c1ccncc1)N(Cc1ccc(C)cc1)C(=O)c1csnn1 (stereo not drawn)	-3.8	-1	.	.	.	.	-5	0.7	0.68
2	Cn1nc(C(=O)NCC2COc3ccccc3O2)c2ccccc2c1=O (stereo not drawn)	3.2	-5	.	.	.	i	-4	1.6	0.67
3	CCOc1cc(CNC2CCCC2)c(Cl)cc1OCC(=O)Nc1ccccc1	1.1	8	9	0	-1.7	i	3	3.7	0.63
4	CC1(C)C(=O)OC(c2cc(Br)ccc2O)C(C)(C)C1=O (stereo not drawn)	0.8	0	.	.	.	.	98*	7.3	0.64
5	CN(CC(=O)Nc1ccccc1Sc1ccccc1)Cc1nc2ccccc2c(=O)[nH]1	5.5	1	-32	-44	0.4	i	-5	2.5	0.68
6	O=C1C(=O)N(Cc2cccs2)c2ccccc21	0.8	7	3	3	2.9	i	-33	2.4	0.65
7	COC(=O)/C(NC(C)=O)=C(\C)c1ccc(Cl)cc1	-1.5	4	.	.	.	.	2	-4.6	0.7
8	COc1ccc(-c2csc(NC(=S)NC(=O)c3ccco3)n2)cc1Br	-0.1	-7	2	1	9.1	i	1	1.2	0.73
9	CCCCN1C(=O)N(c2ccc(Cl)cc2)C(C)(O)CC1(C)C (stereo not drawn)	9.1	-1	-4	-7	-7.5	i	6	0.4	0.62
10	FC(F)(F)c1ccncc1-c1nnnn1-c1ccc(Cl)cc1	0.2	9	5	10	-3.0	i	0	4.2	0.7
11	O=C(NCC1COc2ccccc2O1)C1CCC(CNc2c(N3CCCCC3)c(=O)c2=O)CC1 (stereo not drawn)	-1.5	-5	8	2	-0.4	i	6	4.5	0.72
12	COc1ccc(C2CC(c3ccccc3C)n3nc(N)nc3N2)cc1 (stereo not drawn)	1.8	3	9	7	0.0	i	5	-1.5	0.73
13	CCOC(=O)C1CCCN(S(=O)(=O)c2c(C)noc2C)C1 (stereo not drawn)	4.5	-1	-4	-16	-0.5	i	-1	5.8	0.7
14	CC1CCN(S(=O)(=O)c2ccc(C(=O)Nc3sccc3C(N)=O)cc2)CC1	0.7	8	-9	-13	2.7	i	9	-122	0.75
15	O=C(CNc1ccc(Br)cc1)Nc1ccc(S(=O)(=O)N2CCCC2)cc1	-1.5	-5	.	.	.	i	.	3.7	0.71
16	O=C(NCCCn1ccnc1)c1ccc(S(=O)(=O)Nc2ccccc2)cc1	0.9	7	9	6	-3.7	i	-2	3.1	0.73
17	COc1ccc(N(C(=O)CNC(=O)c2cccs2)C(C(=O)NCC2CCCO2)c2ccccc2)c(OC)c1 (stereo not drawn)	-0.4	-16	5	7	-3.4	i	1	4.2	0.67
18	CCCCCCn1cnc2c(c1=O)c1nc3ccccc3nc1n2Cc1cccs1	-2.9	1	.	.	.	.	-13	-11	0.74
19	Nc1nc2c(ncn2[C@@H]2O[C@H](CNC(=O)[C@H](N)Cc3ccccc3)[C@@H](O)[C@H]2O)c(=O)[nH]1	1.6	.	3	9	-3.5	i	.	.	.
20	COc1ccc(-c2nc3c4ccccc4ccn3c2CC2CCCCC2)cc1OC	4.9	.	14	7	8.1	i	.	.	.
21	CCCCCc1c(C)c(C#N)c2nc3ccccc3n2c1-n1ccnc1C	-2.2	3	.	.	.	.	.	-28	0.67
22	Nc1nc(SCC(=O)Nc2ccc(C(F)(F)F)cc2)[nH]c(=O)c1NC(=O)c1ccc(F)c(F)c1	6.0	0	1	19	3.4	i	-30	-0.5	0.73
23	CCN(CC)S(=O)(=O)c1ccc(C)c(NC(=O)CSc2nnnn2C)c1	-0.9	-4	3	1	0.5	i	-6	4.7	0.71
24	O=C1CCC(=O)N1CNc1cccnc1	0.6	-5	.	.	.	.	-2	0.4	0.68
25	C=CCn1c(SCC(=O)Nc2ccc(NC(C)=O)cc2)nc2sc(C)c(C)c2c1=O	-0.5	-5	11	13	-1.2	i	-3	1.1	0.75
26	CC(C)(C)S(=O)(=O)c1nc2ccccc2s1	-0.6	2	.	.	.	.	-1	0.9	0.69
27	CN(C)c1ccc(N=Nc2cccc(F)c2)cc1	7.3	13	7	4	-4.3	i	.	1.5	0.68
28	O=C(Nc1cccnc1Cl)c1cccc(F)c1	.	.	14	3	-3.2	i	-2	2.3	0.69
29	COc1ccccc1CNC(=O)CN(c1ccc(C)cc1)S(=O)(=O)c1c(C)n[nH]c1C	-2.4	0	-8	-2	1.4	.	1	3.5	0.7
30	COc1ccccc1CC(=O)N1CCCc2ccccc21	0.1	-9	-17	-13	-0.6	.	4	-1.3	0.69

New compounds follow:
#	SMILES	HNF4A DNA FP	Beta2AR agonist	Ecoli rRNA inh	Ecoli rRNA inh OD600	Ecoli rRNA inh RFP	FGF22 binding	ALR H2O2 inh	UCH37 DUB inh	E coli growth
31	Cc1cc2c(cc1C)NC(=O)C(C)CN2 (stereo not drawn)	3.5	.	7	16	1.8	i	.	.	.
32	Cc1ccccc1N1C(=O)c2ccccc2C1Nc1cccnc1 (stereo not drawn)	-2.5	3	2	0	4.1	i	-57	1.8	0.74
33	CN(Cc1ccc(OC(F)F)cc1)C(=O)c1ccc(S(=O)(=O)N(C)c2ccccc2)cc1	-2.7	3	.	.	.	i	-2	4.8	0.7
34	O=C1c2ccccc2C(c2nnnn2Cc2ccccc2)N1Cc1ccco1 (stereo not drawn)	-2.4	.	-12	-9	-4.9	i	.	.	.
35	Cc1cccc(NC(=S)N(CCCN2CCOCC2)Cc2ccco2)c1	-0.2	-5	6	11	-2.6	i	.	0.6	0.71
36	CCOCCCn1c(=S)[nH]c2cc3c(cc2c1=O)OCO3	2.4	-6	.	.	.	.	.	3.0	0.66
37	COc1ccc(C)cc1S(=O)(=O)N(C)CC(=O)Nc1ccccc1	3.0	0	.	.	.	.	-4	0.8	0.72
38	Cc1ccc(NC(=O)C2=C(C(=O)O)CCCC2)cc1F	-3.3	3	7	4	1.8	i	-1	3.4	0.72
39	COc1cc2c(cc1OC)C(C(=O)NCCN(C)C)C(c1cccs1)N(C)C2=O (stereo not drawn)	4.1	1	11	1	5.2	i	14	-0.8	0.71
40	Cc1cccnc1NC(=O)c1ccc(S(=O)(=O)NCc2ccco2)cc1	1.0	-11	5	14	2.3	.	-2	1.9	0.67
41	O=C(Cn1nnc(-c2ccccc2)n1)N/N=C/c1cc([N+](=O)[O-])ccc1O	-2.0	4	1	-4	0.2	i	0	.	.
42	C[C@@H](NC(=O)OC(C)(C)C)c1nnc(S(=O)(=O)Cc2ccccc2)o1	.	12	16	-11	1.4	i	60	.	.
43	Cc1ccccc1NC(=O)CN1CCN(C)CC1	-2.2	-4	7	13	1.3	i	-31	2.2	0.69
44	CC1Cc2cc(S(=O)(=O)NCc3ccccc3)ccc2N1C(=O)C1CCC1 (stereo not drawn)	-4.6	-7	16	10	1.9	i	-4	-3.7	0.64
45	Cc1ncc(CN2CCN(CCc3ccccc3)C(CCO)C2)s1 (stereo not drawn)	-0.3	15	14	9	-3.1	.	-5	0.2	0.71
46	CCn1c(CC(=O)Nc2ccc(C)cc2)n[nH]c1=S	1.2	8	9	-3	-0.9	i	0	2.7	0.71
47	Cc1cccc(C2c3[nH]c4ccccc4c3CCN2C(=O)c2cc3c([nH]c2=O)CCCC3)n1 (stereo not drawn)	1.9	5	9	8	3.7	i	-6	2.0	0.63
48	COc1ccc(CNC(=O)COC(=O)c2ccccn2)cc1	8.1	0	13	5	1.6	i	-12	2.7	0.73
49	O=C1c2ccccc2C(c2nnnn2-c2ccc3c(c2)OCCO3)N1CCCn1ccnc1 (stereo not drawn)	-0.3	.	8	11	-1.8	i	.	.	.
50	Cc1cc(C)cc(Oc2nc(-c3ccccc3)cc(C)c2S(C)(=O)=O)c1	3.5	13	.	.	.	.	-11	1.1	0.85
51	COc1ccc(OC)c(C2C(C(N)=O)=C(C)Nc3nc(CCCO)nn32)c1 (stereo not drawn)	1.8	11	7	12	-0.9	i	-130	4.0	0.72
52	CCOC(=O)c1cnc2cc3c(cn2c1=O)CCCC3	0.1	-8	.	.	.	.	-9	-129	0.73
53	COc1ccc(Cn2c(C(F)(F)F)ccc(C(N)=O)c2=O)cc1	3.0	-9	1	2	2.9	i	-2	-2.2	0.72
54	COc1cc2c(cc1NC(=O)/C=C/c1ccc([N+](=O)[O-])cc1)oc1ccccc12	-3.5	2	2	11	-10	i	.	.	.
55	CCOC(=O)C1CCCCN1Cc1ccc(C(F)(F)F)cc1 (stereo not drawn)	-2.1	1	.	.	.	.	2	-4.9	0.75
56	COc1ccc(/C=N/NC(=O)CCOc2ccccc2C)cc1OC	-0.9	-2	-5	-6	0.2	i	43	.	.
